FGF22 binding = shifts melting point of recombinant human FGF22 | Q9HCT0 | recombinant FGF22 thermal shift, SYPRO orange fluorescence; percent of sucrose octasulfate shift, DMSO zero | calls only at 9.99 µM | 340,000 compounds, 1.5% hits | AID 651658;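 active = melting point raised past a set limit in the mean and every replicate; inconclusive = no clear call; three in four hits are not shown here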
Target sequence (Q9HCT0 whole entry, looked up): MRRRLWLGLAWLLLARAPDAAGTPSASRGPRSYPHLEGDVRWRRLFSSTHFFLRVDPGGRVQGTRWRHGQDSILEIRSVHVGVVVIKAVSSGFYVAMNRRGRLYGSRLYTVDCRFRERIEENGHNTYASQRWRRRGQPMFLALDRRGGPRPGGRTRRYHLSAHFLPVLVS
A1 inh = inhibitors of the anti-apoptotic protein A1, read as caspase activation; MEF A1-2A-BIM cells, Caspase-Glo 3/7 luminescence, 3 h; percent of clofoctol response, vehicle zero; caspase activation, % (no concentration beside the values); 330,000 compounds, 0.066% hits; AID 2462;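 active = over half of replicate activation scores above 10%, or exactly half above 10 with the replicate mean above 10; inconclusive = replicate mean below 10 yet half the replicates above 10; inactive = over half of replicates below 10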;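 note: wells of about 30 µL received 50 nL stock; many hits fall short of the cut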
AF4-AF9 inh = MLL-AF4/AF9 protein interaction inhibition; AlphaScreen, biotin-AF4 peptide binding to FLAG-AF9; 350,000 compounds, 0.47% hits; P42568; inhibition, % at 10 µM;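 active = every replicate reaching a set inhibition limit, whatever the replicate mean, cut at about 25% in these data; inconclusive = mean inhibition reaches that limit but some replicates miss it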;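 note: 0% = plate neutral control median and 100% = total signal loss; the record names both 10 and 1 µM as test concentration; the first replicate is given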
Ecoli growth = E. coli growth inhibition. Escherichia coli growth, OD600, 23 h; active compounds read low. OD600 absorbance (concentration not given with the values). 330,000 compounds, 0.21% hits. AID 1053175;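 active = OD600 absorbance below the run mean of sample wells minus 3.6 SD, in any replicate, cut at about 0.56 in these data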;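 note: stock transfer was 300 nL into about 60 µL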
rRNA inh HTS = inhibits bacterial ribosomal RNA function over humanized ribosomes. E. coli WT GFP vs humanized-ribosome RFP mutants, fluorescence, 24 h; active compounds read low; DMSO median 0, no signal -100. GFP signal change (wild-type ribosome), % (concentration not given with the values). 350,000 compounds, 1.6% hits;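 active = significant combined selectivity score with lowered wild-type GFP, culture density cut under 30%, mutant RFP and density less affected; inactive = any of these conditions unmet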; note: one replicate is shown; some compounds called inactive have numbers as strong as hits
T cruzi inh = T. cruzi replication inhibition; T. cruzi beta-gal in NIH3T3, luminescence, 90 h; inhibition, % (no concentration beside the values); 300,000 compounds, 1.4% hits; AID 1885;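 active = mean inhibition across valid replicates above about 55%, limit read from the data; inconclusive = mean below that limit but half or more replicates reach it; inactive = mean below it, under half of replicates reach it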;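 note: signal also drops with host cell toxicity which is not excluded here; 0% = plate median of DMSO wells and 100% = zero luminescence signal; higher percent means less beta-gal luminescence so fewer parasites; stock transfer was 50 nL into about 50 µL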
UCH37 inh = blocks the human deubiquitinase UCH37; Q9Y5K5; purified proteasome/UCH37, Ub-AMC cleavage fluorescence; inhibition, % (no concentration beside the values); 330,000 compounds, 0.33% hits; AID 588478;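 active = mean of two replicates above 20%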;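 note: 0% = compound-free wells with enzyme and 100% = wells lacking proteasome; stock transfer was 100 nL into about 20 µL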
Target sequence (Q9Y5K5 whole entry, looked up): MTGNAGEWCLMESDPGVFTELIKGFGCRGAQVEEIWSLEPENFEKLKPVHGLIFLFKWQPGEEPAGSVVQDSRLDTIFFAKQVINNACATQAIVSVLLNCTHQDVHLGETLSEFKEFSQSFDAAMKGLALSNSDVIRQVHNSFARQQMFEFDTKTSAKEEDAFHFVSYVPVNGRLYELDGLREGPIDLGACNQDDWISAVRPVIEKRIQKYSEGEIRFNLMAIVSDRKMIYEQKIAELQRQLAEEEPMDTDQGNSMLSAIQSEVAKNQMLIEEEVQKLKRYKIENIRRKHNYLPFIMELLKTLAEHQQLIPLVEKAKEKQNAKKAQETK
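Schedule: 30 min plus 25 min, room temperature / Material: human UCH37 within purified proteasomes / Technique: AMC fluorescence intensity at 355/460 nm / Buffer or medium: pH 7.4 Tris-HCl (50 mM) with ovalbumin, ATP-MgCl2, DTT / Controls: wells without proteasome as full block, compound-free enzyme plus substrate as uninhibited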
Beta cell apopt = blocks beta cell apoptosis | AID 435005 | INS-1E cytokine-induced death, ATP luminescence, 48 h; percent of positive-control rescue, neutral wells zero | protection from apoptosis, % (test concentration not listed) | 300,000 compounds, 0.8% hits;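 active = all replicates at 75% or more, or half of them and the mean; inconclusive = half reach 75% but not the mean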;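 note: 0% = cytokine-treated negative control wells and 100% = positive control rescue; higher means more ATP so stronger rescue from cytokine killing; wells of about 40 µL received 100 nL stock; the first replicate is given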
rRNA inh HTS OD600 = also measured in rRNA inh HTS; calls as there; OD600 change, %; measured here: OD600 growth;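 optical density of the mix in the first replicate; 0 = DMSO median and -100 = no signal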
rRNA inh HTS RFP = also measured in rRNA inh HTS; calls as there; RFP signal change, %; measured here: RFP humanized mutant strains;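 first replicate; 0 = DMSO median and -100 = no signal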
* marks the source's active call; other numbers are inactive results; i = inactive; ? = inconclusive; · = no result given. Some of the compounds tested; rates above refer to the full screens.

structure	T cruzi inh	UCH37 inh	rRNA inh HTS	A1 inh	rRNA inh HTS OD600	FGF22 binding	Beta cell apopt	Ecoli growth	AF4-AF9 inh	rRNA inh HTS RFP
O=C(Nc1ccccc1Cl)c1cc(S(=O)(=O)N2CCCC(C(=O)O)C2)ccc1F (stereo not given)	2	2.4	·	-0.9	·	·	-28	0.65	·	·
COc1ccc(NC(=S)N2CCC(C(=O)c3ccc(C)cc3)CC2)cc1	-2	2.1	-20	-0.6	-16	i	2	0.6	5.0	-2.9
COc1ccc(NC(=O)NNC(=O)c2ccc(-c3ccccc3)cc2)c(OC)c1	2	4.3	-1	0.3	7	i	-8	0.72	-0.8	0.3
CC(=O)c1cc2c(cc1NC(=O)c1cc3nc(C(C)C)cc(C(F)(F)F)n3n1)OCO2	-2	-16	·	-0.9	·	·	·	0.72	·	·
CCC(C)(C)C1CCc2[nH]nc(C(=O)NCCN3CCOCC3)c2C1 (stereo not given)	·	2.2	-3	1.1	-2	i	3	0.67	-0.6	-0.5
Cc1ccc(S(=O)(=O)N/N=C/c2ccc(O)cc2O)cc1[N+](=O)[O-]	-4	·	3	0.2	1	i	-6	·	-12	-1.2
CCc1n(CC(O)COC2CCCCC2)c2ccccc2[n+]1C (stereo not given)	7	1.5	21	0.4	9	i	8	0.69	-2.6	-9.3
COc1ccc(CNC(=O)c2nnn(-c3cccc(C(F)(F)F)c3)c2N)cc1	6	5.7	-28	0.6	-8	i	-2	0.7	2.6	20
CCN(c1ccccc1)S(=O)(=O)c1cccc(C(=O)N(C)CCOc2ccccc2)c1	10	0.4	3	-0.7	2	i	4	0.63	17	0.0
CC(=O)N(Cc1ccccc1)c1ccccc1C(=O)O	-11	-5.5	9	0.4	-2	i	2	0.7	-4.4	5.0
CCCCc1n[nH]c2c1C(=O)CC(C)(C)C2	-1	3.3	·	-0.4	·	·	-6	0.76	·	·
COC(=O)c1ccc(CSC2=NC[C@@H]3[C@@H]4C(=O)N(Cc5ccccc5)C(=O)[C@@H]4[C@](Cc4ccccc4)(C(=O)OC)N23)cc1	·	2.9	-1	·	17	i	·	0.73	0.4	0.5
O=C(/C=C/c1ccc(OC2CSC2)cc1)c1ccccc1	14	2.0	·	-3.5	·	·	2	0.64	·	·
COc1c(C)cccc1C(=O)NC(=S)Nc1cccc2nsnc12	-10	7.6	8	·	6	i	·	0.72	0.2	1.1
O=C(NC(=S)Nc1ccc(S(=O)(=O)N2CCCCC2)cc1)c1cccs1	15	-0.5	8	-0.6	8	i	-6	0.68	9.6	13
O=C1OC(N2CCN(C(=O)C3CCCO3)CC2)c2ccccc21 (stereo not given)	-2	-0.5	·	-0.5	·	·	-1	0.73	·	·
CCCCCN(CCCCC)C(=O)C(CCC(=O)O)NC(=O)c1ccc(Cl)c(Cl)c1 (stereo not given)	-5	0.0	-21	-0.6	-38	i	·	0.69	-1.7	2.2
CN(CCC#N)Cc1cc(=O)oc2ccc3ccccc3c12	-12	-4.1	-19	0.6	-18	i	-5	0.69	-3.3	-2.6
O=C(CSc1nnc(SCc2ccc(Cl)cc2)s1)N/N=C/c1ccccc1C(=O)O	5	·	2	1.1	1	i	1	·	-0.2	-7.1
COc1ccnc(Oc2ccc(F)cc2)c1C(=O)N/C=N/OCc1ccc(F)cc1Cl	11	2.1	-9	-0.4	-5	i	10	0.67	-22	-0.4
CCN1C(=O)[C@@H]2[C@@H](c3ccc(-c4ccc(C(C)=O)cc4)cc3)N3CCCC[C@@]3(C(=O)OC)[C@@H]2C1=O	20	0.1	5	-0.4	0	i	16	·	·	1.9
Clc1ccc2nc(-c3ccc4c(c3)OCO4)cn2c1	0	-49	22	-9.5	20	·	7	0.7	1.0	-2.9
Cc1ccc(CSCCNS(C)(=O)=O)cc1	-8	1.3	·	0.7	·	·	-8	0.68	·	·
Cc1ccc(NC(=S)NNc2ncc(C(F)(F)F)cc2Cl)cc1	-10	1.1	·	1.5	·	·	11	0.63	·	·
O=C(O)c1ccc2c(=O)[nH]c(CCl)nc2c1	-16	-3.4	5	0.1	6	i	4	0.68	3.9	1.0
COc1cc2c(cc1NC(=O)Nc1ccc(C)cc1)oc1ccccc12	15	-37	·	-0.4	·	·	7	0.78	·	·
CCCOc1ccccc1C1NC(=O)NC(C)=C1C(=O)OCCOCC (stereo not given)	-1	0.5	·	0.3	·	·	1	0.7	·	·
O=C(Nc1nc(C2C3CC4CC(C3)CC2C4)cs1)c1cc2cc([N+](=O)[O-])ccc2oc1=O (stereo not given)	-4	4.4	·	0.8	·	·	0	0.7	·	·
NS(=O)(=O)c1cccc(NC(=O)Cn2nc(C(=O)O)c3ccccc3c2=O)c1	-14	2.8	3	0.3	-2	i	-4	0.67	-1.1	-0.8
O=C(CCc1nc2ccccc2c(=O)[nH]1)Nc1cccc(S(=O)(=O)N2CCCCC2)c1	-16	2.2	-1	1.3	-3	i	7	0.7	-1.1	-0.2
CS(=O)(=O)N(CC(=O)Nc1ccc(F)cc1)C1CCCCC1	5	2.7	1	-0.2	-14	i	-1	0.72	-0.6	-2.2
COc1ccc(CCCc2nnc(SCC(=O)Nc3ccc(OC)cc3)o2)cc1	-13	0.4	-9	-4.0	-10	i	-3	0.68	-0.8	-8.2
Cc1ccc(NC(=O)CCC(=O)c2ccc(F)cc2)cc1Cl	10	3.9	·	0.1	·	·	-3	0.7	·	·
COCCOC(=O)/C=C1/NC(=O)CS1	-8	0.6	·	0.8	·	·	-2	0.69	·	·
O=C(CCN1CCN(c2ccccc2F)CC1)Nc1ccccc1F	14	3.2	·	-6.5	·	·	-1	0.71	·	·
COc1ccc(S(=O)(=O)N2CCC(N3CCN(Cc4ccccc4)CC3)CC2)cc1	20	-1.2	9	0.2	7	i	·	0.71	0.3	-0.9
O=S(=O)(Nc1cccc(-c2nc3cccnc3s2)c1)c1cccs1	3	0.7	1	-0.9	-10	i	1	0.68	-3.1	-6.3
Cn1c(=O)c2c(ncn2CC(=O)OCC(=O)Nc2ccccc2)n(C)c1=O	-16	-1.4	1	-0.1	6	i	-3	0.67	-0.5	1.3
Cc1ccc(C2=NN(C(=O)CCC(=O)O)C(c3ccc4c(c3)OCO4)C2)cc1 (stereo not given)	8	6.5	5	0.0	2	i	·	0.68	3.3	-0.9
COc1cccc(C(=O)Nc2cccc(-c3ccc4nncn4n3)c2)c1OC	-13	6.9	-5	0.1	4	i	0	0.69	7.0	-2.2
CCCCN(C(=O)c1ccc2c(c1)OCO2)c1ccccc1	-1	5.3	-1	-0.3	-3	i	0	0.69	-0.8	-2.3
CC(c1ccco1)N(C(=O)c1cccs1)c1ccccn1 (stereo not given)	0	0.5	·	-0.2	·	·	1	0.65	·	·
CCN(CC)C(=O)n1cnc(-c2ccccc2)c1-c1ccccc1	1	-1.0	-11	0.8	-3	i	-7	0.72	0.6	9.7
CCSCCc1nnc(NC(=O)Nc2cccc(C(F)(F)F)c2)s1	0	1.5	·	-0.3	·	i	119*	0.69	2.4	·
O=C(Cn1cc2c(n1)CCCCC2)Nc1ccccc1Br	-7	1.1	-17	-0.1	-16	i	-6	0.71	0.3	-3.9
O=C(O)c1ccc(-n2nnnc2Oc2ccccc2C(=O)N2CCOCC2)cc1	-14	5.7	·	-1.1	·	·	-3	0.7	·	·
CCS(=O)(=O)c1nc(S(=O)(=O)c2ccc(Cl)cc2)c(NCCN2CCOCC2)s1	-1	3.4	3	0.4	9	i	-4	0.66	-8.0	-1.0
CC(C(=O)OCc1nnc(-c2ccccc2)o1)N1C(=O)C2CCCCC2C1=O (stereo not given)	-15	-1.4	5	0.3	-14	i	6	0.62	-2.7	0.5
O=[N+]([O-])c1cccc(/C=C2\CCC(/C=N/Nc3ccc4ccccc4n3)=C2N2CCOCC2)c1	?	·	8	-0.2	10	i	5	·	-0.2	-8.7
CCOc1ccc(S(=O)(=O)N2CCN(C(=O)c3cccn3C)CC2)cc1	-2	5.5	-2	-0.1	4	·	-5	0.66	·	-8.6

The results go on:
structure	T cruzi inh	UCH37 inh	rRNA inh HTS	A1 inh	rRNA inh HTS OD600	FGF22 binding	Beta cell apopt	Ecoli growth	AF4-AF9 inh	rRNA inh HTS RFP
CCCc1nc(Cl)c(C#N)c2c1CCCC2	8	19	-19	1.3	-36	i	-14	0.67	-5.7	-11
O=C(Nc1ccccc1N1CCCCC1)c1ccccc1F	15	2.7	·	-1.2	·	·	-1	0.7	·	·
CC(C)N(CCO)C(=O)CCc1nnc(Cc2cccc(C(F)(F)F)c2)o1	-10	2.3	·	-1.1	·	·	-3	0.71	-3.4	·
Cc1ccc(-c2cc(C(F)(F)F)n3ncc(C(=O)N4CCCc5ccccc54)c3n2)cc1	-28	3.6	14	·	6	i	·	0.71	-0.6	5.8
CCc1nnc(NS(=O)(=O)c2ccc(N/C=C\C(=O)c3cccc(OC)c3)cc2)s1	10	-14	-3	-0.3	-10	i	-1	0.66	-0.7	0.4
COc1ccc(OC)c(-n2nnnc2SCC(=O)NCCc2ccccc2)c1	-1	4.4	·	-0.1	·	·	-5	0.71	·	·
CCc1ccccc1NC(=O)COc1ccc(C(=S)N2CCCC2)cc1	-9	3.8	-8	0.0	-13	i	3	0.71	1.2	-1.8
Cc1nc(-c2coc3c(CN(C)C)c(O)ccc3c2=O)cs1	-8	-282	·	-0.1	·	·	-4	0.71	1.1	·
COc1ccc(NC(=O)COC(=O)Cc2c[nH]c3ccccc23)cc1OC	-13	1.3	-21	-0.5	-8	i	-1	0.72	6.9	0.8
